# KCNQ2 enhance: potentiators of rat KCNQ2 potassium channel. Potassium voltage-gated channel subfamily KQT member 2 (Rattus norvegicus), O88943. CHO-K1 KCNQ2, FluxOR thallium flux fluorescence; stronger effect = higher value. B-score at 10 µM. actives 0.54% (n = 310,000). AID 2239, 2010;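 active = fluorescence ratio B-score at least 3 SD of library B-scores, with initial fluorescence B-score within 3 SD, cut at about 5.3 in these data; same plate scores as AID 2156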;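 note: B-score of peak minus minimum over baseline fluorescence ratio after K+ and Tl+ stimulus; positive B-score means potentiation of KCNQ2 with more thallium influx and brighter signal; only the inactives scoring about 0 or higher are listed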
# Target sequence (O88943 whole entry, looked up): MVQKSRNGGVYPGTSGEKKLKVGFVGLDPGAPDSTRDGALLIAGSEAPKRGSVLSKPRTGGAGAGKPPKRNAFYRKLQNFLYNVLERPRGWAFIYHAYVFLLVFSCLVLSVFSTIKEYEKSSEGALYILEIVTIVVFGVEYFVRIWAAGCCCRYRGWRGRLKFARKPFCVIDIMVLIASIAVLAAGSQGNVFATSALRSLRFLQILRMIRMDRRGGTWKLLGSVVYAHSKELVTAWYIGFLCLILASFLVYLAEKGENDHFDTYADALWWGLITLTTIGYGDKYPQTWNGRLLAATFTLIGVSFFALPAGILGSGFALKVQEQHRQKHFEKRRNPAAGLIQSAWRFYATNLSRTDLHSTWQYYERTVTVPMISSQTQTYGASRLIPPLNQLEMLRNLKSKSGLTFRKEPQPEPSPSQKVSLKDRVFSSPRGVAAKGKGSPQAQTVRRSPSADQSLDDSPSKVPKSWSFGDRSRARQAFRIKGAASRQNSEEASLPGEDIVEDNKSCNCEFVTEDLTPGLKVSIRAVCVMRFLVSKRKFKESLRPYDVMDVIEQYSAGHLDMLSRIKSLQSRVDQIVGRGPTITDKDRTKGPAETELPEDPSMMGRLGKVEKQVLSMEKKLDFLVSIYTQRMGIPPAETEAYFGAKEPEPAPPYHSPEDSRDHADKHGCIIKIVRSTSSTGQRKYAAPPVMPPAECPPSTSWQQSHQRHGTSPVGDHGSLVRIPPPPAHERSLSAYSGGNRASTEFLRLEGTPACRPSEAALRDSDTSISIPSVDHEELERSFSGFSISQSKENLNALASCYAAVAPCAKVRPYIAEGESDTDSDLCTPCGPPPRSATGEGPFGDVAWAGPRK
# KCNQ2 enhance baseline: further read-out of KCNQ2 enhance, marked with its call; B-score; compound at 10 µM; measured here: initial fluorescence intensity artifact check;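 brightness before thallium and not channel activity; 0 = typical well and far values either way flag optical interference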
# * hit, by the source's call. This is a subset; the hit share may differ from the screen's.
SMILES,KCNQ2 enhance,KCNQ2 enhance baseline
CC(=O)Nc1ccccc1NS(=O)(=O)c1ccc(Cl)cc1,2.1,2.6
C/C(Cn1nnc([N+](=O)[O-])n1)=N\NC(=O)c1ccccc1O,0.97,-0.37
Cn1c2ccccc2c2cc(C(=O)O)ccc21,0.03,-0.17
c1ccc(-c2nnc(-c3ccco3)o2)cc1,1.1,-1.3
C[N+](C)(C)CC/C=C1/c2ccccc2CSc2ccccc21,0.29,-2.4
COc1ccc(CNC(=O)C2CCN(S(=O)(=O)N3CCOCC3)CC2)cc1,0.3,0.05
CCC(=O)Nc1ccc2nn(-c3ccc(F)cc3)nc2c1,0.52,0.58
Cn1c(=O)c(Sc2ccc(Cl)cc2)c(O)c2ccccc21,0.64,-0.04
COc1ccc(CNC(=O)c2cnc(C)cn2)cc1,0.22,-0.65
Cc1ccc2oc(C(=O)N3CCC(O)(c4ccccc4)CC3)c(C)c2c1,0.49,-1.4
O=C(C1=C[C@H](c2coc3ccccc3c2=O)C[C@H](OCCCCO)O1)N1CCOCC1,0.08,-1
Cc1ccc(NC(=O)c2cccc(NC(=O)CCC(=O)O)c2)cc1C,1.2,0.07
COc1ccc(CCNc2oc(-c3ccc(OC)c(OC)c3)nc2P(=O)(OC)OC)cc1OC,0.19,-1.1
O=C(NC(=S)Nc1ccc(O)cc1)c1cncc(Br)c1,0.01,1.7
O=C(CCn1c(=O)sc2ccccc21)NCCN1CCOCC1,0.08,-0.54
COc1ccc(CC(=O)Nc2ccccc2N2CCCC2)cc1OC,0.83,-1.4
O=C(C(Cl)Cl)N1c2ccccc2OCC1c1ccccc1 (stereo not given),1.1,1.2
CCCCCCC(=O)NNC(=O)c1c(O)c2ccccc2n(CCC)c1=O,0.69,0.2
C#CCOCCOCCOCCNc1nc(N2CCN(C(=O)C([C@@H](C)CC)n3cc(C(N)CO)nn3)CC2)nc(N2CCN(C(=O)[C@H](CCC(=O)O)n3cc(C(N)Cc4ccc(O)cc4)nn3)CC2)n1 (stereo not given in full),0.56,-1.7
C=CCn1c(CSc2ccccc2[N+](=O)[O-])n[nH]c1=S,0.55,-0.57
Cc1nc2ccccc2c(=O)n1CCc1ccc(O)cc1,0.65,-0.09
COCc1cc(C)nc(Nc2ccccc2OC)c1C#N,1.3,0.88
Cc1cc2oc(=O)cc(CN3CCCc4ccccc43)c2cc1C,1.4,0.75
COc1cc([N+](=O)[O-])cc(CN2CCCCC2)c1O,1.5,-0.02
CCOc1ccc(C(C)=O)cc1CC(C(N)=O)C(N)=O,1.2,-0.02
CCc1c(C)sc(NC(=O)C2CC2c2ccccc2)c1C(N)=O (stereo not given),0.61,0.97
COC(=O)c1ccc(CSc2nnc(-c3ccncc3)o2)cc1,0.02,-0.05
C=C1CCN(C(C)C(=O)OC)S(=O)(=O)c2ccccc21 (stereo not given),1.7,1.2
CCNC(=O)c1ccc(C23CC4CC(CC(C4)C2)C3)o1,0.01,0.91
CCCn1nnnc1NC(=O)c1cccs1,2.1,0.65

# Pulled one by one from the entries so far, 6 records:
SMILES,KCNQ2 enhance,KCNQ2 enhance baseline
C=C1CCN(C(C)C(=O)OC)S(=O)(=O)c2ccccc21 (stereo not given),1.7,1.2
CCOc1ccc(C(C)=O)cc1CC(C(N)=O)C(N)=O,1.2,-0.02
COCc1cc(C)nc(Nc2ccccc2OC)c1C#N,1.3,0.88
O=C(C(Cl)Cl)N1c2ccccc2OCC1c1ccccc1 (stereo not given),1.1,1.2
CCCCCCC(=O)NNC(=O)c1c(O)c2ccccc2n(CCC)c1=O,0.69,0.2
C=CCn1c(CSc2ccccc2[N+](=O)[O-])n[nH]c1=S,0.55,-0.57

# Next compounds follow:
SMILES,KCNQ2 enhance,KCNQ2 enhance baseline
COC(=O)/C(C(C)=O)=C(/C=C/C=C/N(C)C)N(C)C,0.19,0.12
Cc1cc(C(=O)NCCc2ccc(Cl)cc2)no1,0.13,1.4
C[C@H](NC(=O)c1ccco1)C(=O)Nc1ccc2c(c1)OCO2,0.03,-0.99
O=C1CN(C(=O)COC(=O)CNS(=O)(=O)/C=C/c2ccccc2)c2ccccc2N1,0.5,-0.59
CCn1c(SCC(=O)Nc2cccc(C(C)=O)c2)nnc1C(C)C,0.22,1.5
CCOC(=O)C1(CCCc2ccccc2)CCN(C(=O)c2ocnc2C)CC1,0.3,-0.91
CCOc1ccc(NC(=O)c2cc3ccccc3cc2O)cc1,0.32,0.4
O=C(CN1CCN(Cc2ccc(F)cc2Cl)CC1)NCc1ccccc1,0.8,-0.68
COc1ccc([N+](=O)[O-])cc1NC(=O)c1ccc(N2C(=O)CCC2=O)cc1,0.25,0.1
COc1cccc(NC(=S)Nc2cc(C)cc(C)n2)c1,1.2,1.9
O=C(CCCCCn1c(=S)[nH]c2ccc(N3CCOCC3)cc2c1=O)NCc1ccc(Cl)cc1,1.5,-0.31
c1cnc2c(Oc3ncnc4sccc34)cccc2c1,0.04,-1.1
COc1ccc(C2C3=C(CCCC3=O)Nc3nc(SCc4ccc(C(=O)O)cc4)nn32)cc1OC (stereo not given),1.3,-2.9
Cc1sc(-c2ccncc2)nc1OC(=O)c1ccccc1,0.16,1.9
NN1C(=O)NC(c2ccccc2)(c2ccccc2)C1=O,1.5,-0.13

# Individual results from the entries so far.
# KCNQ2 enhance result of `Cc1cc(C(=O)NCCc2ccc(Cl)cc2)no1` stands at 0.13
# KCNQ2 enhance result of `Cc1sc(-c2ccncc2)nc1OC(=O)c1ccccc1` stands at 0.16

# More compounds
SMILES,KCNQ2 enhance,KCNQ2 enhance baseline
CCCn1c(O)c(CN2CCCC(C)C2)c(C)c(C#N)c1=O (stereo not given),0.87,1.5
O=C(Nc1nnc(-c2ccco2)s1)c1ccccc1,2.2,-2
N#Cc1ccc(C(=O)OCC(=O)N2CCCC2)cc1,0.91,-0.35
CCOC(=O)c1c(NC(=O)CSc2nnc(-c3cccnc3)o2)sc2c1CCC2,0.8,-1.5
C/C(=N\NC(=O)c1ccncc1)c1ccc(N(C)C)cc1,1.7,-0.01
CCOc1ccc(NC2OC(C)C(O)C(O)C2O)c([N+](=O)[O-])c1 (stereo not given),2.6,-1.7
O=C1NC(=Nc2ccccc2)c2ccc([N+](=O)[O-])cc21,2.8,-1.7
CCC1(CC)C(=O)C2=C3C1[C@H](C(=O)OC)CC(C(=O)OC)C[C@H]3[C@H]1C(=O)N(c3ccccc3)C(=O)[C@H]1[C@H]2C (stereo not given in full),0.88,1.4
C/C(=N\NC(=O)c1cc2ccccc2cc1O)c1cccs1,7.7*,0.14*
CCCCC1=CC2=C(c3ccco3)C(=O)C(C)(OC(=O)c3ccc(OC)cc3)C(=O)C2=CN1CCCOC(C)C (stereo not given),0.18,1.4
COc1cccc(NS(=O)(=O)c2ccc3c(c2)CCCN3C(C)=O)c1,0.14,-0.61
COc1cccc(/C=N/NC(=O)CC(=O)NCCc2ccc(OC)c(OC)c2)c1,0.05,0
CN(C(=O)CSc1nc(C2CC2)nc2ccccc12)c1nc(-c2ccccc2)cs1,0.13,0.04
CCc1ccc(NC(=S)N2CCC(NC(=O)c3ccccc3)CC2)cc1,0.38,0.4
Cc1ccc(NC(=O)C2CCCN2S(=O)(=O)c2ccc3c(c2)CCC(=O)N3)cc1Cl (stereo not given),0.31,1.4
CC(=O)NC(CC(=O)Nc1cccc(S(=O)(=O)N2CCCCC2)c1)c1ccccc1 (stereo not given),0.38,-0.95
CC(=O)c1c(C)n(C)c2ccc(O)cc12,0.01,-1.6
CCN1CCN(S(=O)(=O)c2ccc(Cl)c(C(=O)Nc3ccc(OC(F)F)cc3)c2)CC1,0.01,-1.4
Cc1ccc(-c2nnn(CC(=O)Nc3ccccc3N3CCOCC3)n2)cc1,1.4,-0.44
COc1ccc(/C=N/NC(=O)c2nnn(-c3nonc3N)c2-c2cccs2)cc1OC,0.01,1.8
CS(=O)(=O)N1CCc2cc(C(=O)N3CCN(c4ccc(F)cc4)CC3)ccc21,1.1,-1.6
CN(C)CCN(C(=O)C1CCN(S(=O)(=O)c2cccs2)CC1)c1nc2ccccc2s1,0.18,1.7
CC(C)n1nccc1N(Cc1ccc(C#N)cc1)S(=O)(=O)c1ccccc1,0.65,0.3
O=C(NC1CCN(Cc2ccccc2)CC1)c1ccccc1,0.11,-2
CCN1CCN(C(=O)CCc2nc3ccccc3n2-c2ccccc2)CC1,0.82,-0.26
CC1Nc2ccccc2C(=O)N1NS(C)(=O)=O (stereo not given),0.38,-1.5
COc1cccc(/C=C/C(=O)OCC(=O)Nc2cc(S(=O)(=O)N3CCOCC3)ccc2C)c1,0.78,-1
COc1ccc(C(=O)NC(C)c2cc(OC)c(OC)cc2Br)cc1 (stereo not given),0.6,0.22
O=C(Nc1nnc(S(=O)(=O)N2CCCCCC2)s1)c1cccc(Br)c1,0.22,0.14
CCCCN(C(=O)C(C)Oc1cccc(Cl)c1)c1c(N)n(CCC)c(=O)[nH]c1=O (stereo not given),1.9,-0.86
Cc1cccn2c(=O)c3cc(C(N)=S)c(=N)n(CCCN4CCOCC4)c3nc12,0.07,0.04
NC(=O)NC(Cc1ccccc1)C(=O)O (stereo not given),0.15,-0.72
O=c1c(-c2ccccc2)c(O)c2ccccc2n1-c1ccccc1,1.8,0.19
CNC(=O)c1cc2cc(OC)ccc2n1CCN(C)C,0.57,-0.63
CCOc1cc(/C=C2\CCC/C(=C\c3cc(Cl)c(O)c(OCC)c3)C2=O)cc(Cl)c1O,0.11,2.8
Cc1nc(-c2cc(-c3nc(-c4ccc(C(C)(C)C)cc4)no3)no2)cs1,0.03,-1.3
CCOc1cccc(C(=O)Nc2cccc(C(C)=O)c2)c1,0.76,0.31
C=CCn1c(-c2ccccc2)nc(=S)c2c1CC(C)(C)OC2,1.3,0.65
CC1(C)CC(=O)C=C(NCCN2CCN(C(=O)Nc3ccc(Cl)c(Cl)c3)CC2)C1,0.05,-0.7
O=C(NNC(=O)c1cccnc1Cl)c1ccc(F)cc1,0.08,-1.7
Cc1[nH]n(-c2ccccc2)c(=O)c1C=NC1CCCCC1,0.29,0.66
CC(C)c1ccc(S(=O)(=O)c2nnn3c2nc(NCC2CCCO2)c2ccccc23)cc1 (stereo not given),1.4,-0.85
Cc1csc(CN(C)C(=O)CC2C(=O)NCCN2Cc2ccc(F)cc2Cl)n1 (stereo not given),0.25,-0.74
Cc1cccc(NS(=O)(=O)c2ccc3[nH]c(=O)cc(C(=O)O)c3c2)c1,0.13,-0.46
O=C(c1ccc(Cl)cc1)[C@@H]1[C@@H]2C(=O)N(c3ccccc3)C(=O)[C@@H]2C2c3ccccc3C=NN21 (stereo not given in full),1.1,1.7

# Four of the entries above in order of their number in KCNQ2 enhance, highest first.
SMILES,KCNQ2 enhance
C/C(=N\NC(=O)c1cc2ccccc2cc1O)c1cccs1,7.7*
NN1C(=O)NC(c2ccccc2)(c2ccccc2)C1=O,1.5
O=C1CN(C(=O)COC(=O)CNS(=O)(=O)/C=C/c2ccccc2)c2ccccc2N1,0.5
O=C(NNC(=O)c1cccnc1Cl)c1ccc(F)cc1,0.08

# Entries of single compounds as entered above:
# Cc1cccn2c(=O)c3cc(C(N)=S)c(=N)n(CCCN4CCOCC4)c3nc12 as listed: KCNQ2 enhance = 0.07; KCNQ2 enhance baseline = 0.04
# CCOc1cccc(C(=O)Nc2cccc(C(C)=O)c2)c1 as listed: KCNQ2 enhance = 0.76; KCNQ2 enhance baseline = 0.31

# Other records
SMILES,KCNQ2 enhance,KCNQ2 enhance baseline
Cc1cccc(NC(=S)NC2CCCC2)c1C,0.19,-1.7
COc1cc(-c2n[nH]c(=S)n2/N=C/c2cccn2C)cc(OC)c1OC,3.4,-0.13
CCc1ccc(N2CN(CCc3ccccc3)CNC2=S)cc1,0.2,-0.25
CC(C)N(Cc1nccn1C)C(=O)CC1C(=O)NCCN1Cc1ccccc1C(F)(F)F (stereo not given),0.1,1.2
Cc1cc(C)nc(SC2CCCCC2NS(=O)(=O)c2ccccc2)n1 (stereo not given),0.33,0.08
COC(=O)C1C(c2ccc(OC)c(OC)c2)NC(c2ccc(OC)c(OC)c2)C(C(=O)OC)S1(=O)=O (stereo not given),0.88,-0.06
Cc1cc(C)cc(OCC(=O)N2Cc3ccccc3CC2C(=O)O)c1 (stereo not given),0.12,1
N#Cc1nnn(Cc2ccccc2)c1N,1.5,1.1
O=c1c(Cl)c(NCc2ccccc2)cnn1C12CC3CC(CC(C3)C1)C2,0.99,-1.9
Cn1c(=O)oc2cc(S(=O)(=O)CCC(=O)N3CCN(c4ccccc4F)CC3)ccc21,0.61,-1.3
COc1ccccc1NC(=O)CSc1nnc2ccc(-c3cccnc3)nn12,0.97,0.64
COc1cccc(-n2c(C)cc(/C=C3/C(=N)N4C(=NC3=O)SN=C4S(C)(=O)=O)c2C)c1,1.2,-1.2
COc1ccc(C2=CC3=CC(=O)C(C)(O)C(=O)C3=CO2)cc1 (stereo not given),1.1,0
Cc1ccc(-c2nsc(SCC(=O)NCc3ccc4c(c3)OCO4)n2)cc1,1.2,-0.75
Cc1ccccc1Cn1nnc(-c2ccc(C(=O)O)cc2)n1,0.81,-0.1
CC(/C=C/c1ccccc1F)=N\NC(=O)C(C)C,0.11,1.4
Cc1ccc(C[n+]2ccccc2)cc1,0.02,0.05
O=C(O)c1c(NC(=O)N(CCO)Cc2ccccc2)sc2c1CCCC2,0.74,-0.09
COc1ccc(S(=O)(=O)NCc2cn3c(C)csc3n2)cc1F,0.26,0.05
NC(=O)CC(NC(=O)c1ccc(Br)cc1)c1ccc(NC2CCCCCCC2)c([N+](=O)[O-])c1 (stereo not given),3.7,-2.1
CCOc1cc(/C=N/NC(=O)CN2CCCCC2)ccc1OCc1ccc(Cl)cc1,2.2,-0.44
CC(C)(C)C1CCC2(CC1)Nc1cccc3cccc(c13)N2,1,-1.2
CC(=O)c1c(C)[nH]c(C(=O)OCC(=O)C(C)(C)C)c1C,0.4,1.2
CSc1ccccc1C(=O)NC1CCCCC1,0.49,-2.5
Cn1c(-c2cccs2)nc2ccccc21,0.33,1.5
Cc1[nH]c2ccccc2c1C1(O)C(=O)N(C(C)C)c2ccccc21 (stereo not given),0.39,-2.8
